Rango-impB inh: prevents formation of the Rango-importin beta complex; Q14974; Rango CFP/YFP FRET sensor + importin beta, 45 min; Potency, µM (titrated, usually from 92.2 µM), for the others: at the highest dose inhibition of complex formation; 340,000 compounds, 0.031% hits; AID 540263; active = rising FRET ratio curve, often small or poorly fitted; inconclusive = mostly compound fluorescence or quenching in the first reads; inactive = flat curves in all reads;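 note: potency is the fitted concentration of half-maximal effect; 0% = DMSO wells and 100% = buffer wells lacking importin beta; nearly all actives have a fitted effect of over 15% in size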
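FRET biosensor Rango (snurportin 1 IBB between N-terminal EYFP and C-terminal Cerulean), 50 nM in PBS/1 mM DTT/0.02% Tween-20/0.1% BSA, preincubated 5 min RT with compound; 0.125 microM importin beta added, 45 min RT, CFP/YFP FRET ratio read.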
Rango release inh: prevents RanGTP from dissociating the Rango-importin beta complex | 340,000 compounds, 0.071% hits | O95149+P62826 | Biochemical FRET Rango-importin beta, RanGTP-induced dissociation | Potency, µM (highest dose often 46.1 µM), inactives show at the top dose activity change, negative = inhibition | AID 540253; active means falling FRET ratio curve, often poorly fitted, with flat reads before Ran was added; inconclusive means other falling curves, or compound fluorescence or quenching; inactive means flat or rising ratio curve;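 note: potency is the fitted concentration of half-maximal effect; % of control where 0% means no effect; nearly all actives have a fitted effect of over 45% in size; -100% = wells without RanGTP and RCC1; the record marks most hits as doubtful in a second field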
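Rango/importin beta premix (0.1/0.25 uM final), PBS + 1 mM DTT + 0.02% Tween-20 + 0.1% BSA; cpd 5 min RT; FRET pre-read; + RanGTP-RCC1 (0.6 uM Ran, 2 mM GTP, 0.2 uM RCC1); 45 min RT; FRET post-read, ex 430, em 486/530 nm.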
miR-21 FLuc: miR-21 reporter, rising signal; 340,000 tested, under 10 active; HeLa miR-21 FLuc reporter, luciferase, 48 h; Potency, µM (doses to about 38.3 µM), for inactives: at the highest dose reporter change, positive = more light; active = well fitted rising curve with a large enough effect; inconclusive = small, poorly fitted or top-dose-only effect; inactive = no such curve, though single readings can be large or run the other way;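 note: % of control where 0% means no effect; miR-21 action dims this reporter so a rising signal means less miR-21 action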
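Using DMEM plus 10% FBS, HeLa miR-21-FLuc cells are incubated with test compounds (final up to about 40uM) for 48 hours; firefly luciferase signal is then imaged following reagent-mediated lysis.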
GLA inh pH 4.5: inhibitors of human alpha-galactosidase A at pH 4.5 | 230,000 tested, under 10 active | P06280 | AID 1467 | purified enzyme, 4-MU-alpha-Gal fluorescence, pH 4.5 | activity change, negative = inhibition, % at 105 µM; inconclusive = small, poorly fitted or top-dose-only inhibition, or a rising curve; inactive = flat fitted curve, though single readings scatter; no compound was filed as active;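 note: 0% = full activity with enzyme and -100% = basal without enzyme; dose as in the result columns while the protocol names 77 µM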
Target sequence (P06280 whole entry, looked up): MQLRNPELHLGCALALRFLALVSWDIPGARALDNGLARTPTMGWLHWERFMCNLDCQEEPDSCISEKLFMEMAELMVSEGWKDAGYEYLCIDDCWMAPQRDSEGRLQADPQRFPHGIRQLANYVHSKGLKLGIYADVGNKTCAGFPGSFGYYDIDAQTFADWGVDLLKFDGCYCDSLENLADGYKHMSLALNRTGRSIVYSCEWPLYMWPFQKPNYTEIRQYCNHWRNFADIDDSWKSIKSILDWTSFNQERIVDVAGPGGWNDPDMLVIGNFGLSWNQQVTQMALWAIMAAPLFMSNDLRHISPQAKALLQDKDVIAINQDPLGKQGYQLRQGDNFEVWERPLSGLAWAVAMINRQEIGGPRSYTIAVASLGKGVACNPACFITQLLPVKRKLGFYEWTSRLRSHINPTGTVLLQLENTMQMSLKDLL
The depositor's hits bear a star; u = inconclusive; x = not tested or not shown; & = joins results of further samples; [ ] = another dose, or the depositor's remark. The list is partial; the hit share may differ from the screen's.

SMILES	Rango-impB inh	Rango release inh	miR-21 FLuc	GLA inh pH 4.5
Cn1c(CNc2ccc(F)cc2)nnc1SCC(=O)NNC(=O)Cc1ccccc1	-1.2%	10%	0%	6
O=C(NCc1ccccn1)C(=O)NN=C1CCCCCCC1	-0.1%	11%	0%	-5[21.1 µM]
CN1C(=O)[C@@H]2[C@@H]3C[C@@H]([C@H]4ON=C(c5ccc(Cl)cc5Cl)[C@@H]34)[C@@H]2C1=O	-0.1%	-1%	-2%	3
Cc1ccc2c(c1)N(Cc1ccc([N+](=O)[O-])cc1)C=NS2(=O)=O	0.6%	-18%	1%	x
COc1cc2[nH]c(=O)n(CCC(=O)NCCCN3CCN(c4ccccc4F)CC3)c(=O)c2cc1OC	4.1%	0%	0%	7
Cc1ccc(C(=O)N/N=C/c2ccc(-c3ccccc3[N+](=O)[O-])o2)cn1	1.6%	-15%	-13%	6
CCC(=O)Nc1nc2ccccc2n1Cc1ccc(C)cc1	0.0%	-3%	10%	5
CCC(C(=O)NC(C)(C)C)N(Cc1ccc(F)cc1)C(=O)c1snc(C(N)=O)c1N (centres undefined)	-4.9%	0%	1%	x
CC1=C(C)CC2C(=O)N(Cc3ccccc3)C(=O)C2C1 (centres undefined)	7.2%	-16%	1%	7
CCOP(=O)(OCC)C(NC(=O)c1cccs1)C(F)(F)F (centres undefined)	1.4%	16%	6%	27
O=C1Nc2ccc(F)cc2C12Nc1ccccc1-c1nnc(SCc3ccccc3)nc1O2 (centres undefined)	1.5%	-7%	-8%	-2
Cc1oc2c(C)c3oc(=O)c4c(c3cc2c1C)CCC4	-2.3%	-7%	-7%	-2
Cc1cccc(NC(=O)C2C3C=CC4(O3)C2C(=O)N(CCCN2CCCC2)C4C(=O)NC2CCCC(C)C2C)c1 (centres undefined)	-0.7%	-11%	0%	x
CCCCCCSc1nsc(N)n1	u	-4%	-46%	6
Cc1ccccc1C(=O)NNC(=O)C1CCN(c2ncccn2)CC1	1.0%	8%	3%	x
COCc1cc(C)nc(OCC(=O)N/N=C/c2ccc(O)cc2O)c1C#N	-2.6%	20%	2%	-7
CN(C)c1cccc(C(=O)NNC(=S)NC2CC3CCC2C3)c1 (centres undefined)	0.2%	8%	-54%	4
Cc1nc(NS(=O)(=O)c2ccccc2C)c2c3c(sc2n1)CCC3	1.3%	7%	-3%	7
COC(=O)COc1ccc(S(=O)(=O)N2CCN(c3ccccc3)CC2)cc1	-0.9%	-8%	-1%	9
S=c1[nH]ccc2ccccc12	-0.8%	-10%	x	x
CCCN1/C(=C(/C#N)C2=NS(=O)(=O)c3ccccc32)N(C)c2ccccc21	-1.4%	-25%	-12%	-3
Cc1ccc2c(c1)c(C)c(C)n2CC(O)Cn1nc(C)c(Br)c1C (centres undefined)	0.0%	8%	-2%	-10
CSCCC(NC(=O)c1ccccc1)C(=O)N1CCN(Cc2ccc(Cl)cc2)CC1 (centres undefined)	-0.9%	5%	x	x
Cc1ccc(-c2ccccc2NC(=O)CS(=O)CC(=O)Nc2ccc(C)c(Cl)c2)o1 (centres undefined)	u	-14%	-8%	x
CS(=O)(=O)N(CC(=O)N1CCCCC1)c1ccc(Cl)c(C(F)(F)F)c1	5.0%	-4%	0%	-2
O=C(c1ccc(-c2ccc(Cl)cc2)o1)N1CCN(S(=O)(=O)c2cccs2)CC1	-0.3%	9%	x	x
Fc1ccc(/C=N/n2c(-c3cccs3)n[nH]c2=S)cc1	0.7%	16%	-7%	6
CCOC(=O)C1NN=C(C(=O)c2ccccc2)C1c1ccc(Cl)cc1 (centres undefined)	3.4%	-5%	-7%	-1
O=C(CNC(=O)C(c1ccccc1)c1ccccc1)N/N=C\c1cccc(O)c1	5.8%	1%	6%	6
Clc1nssc1=Nc1ccccc1	1.5%	1%	-13%	0
O=C1c2ccccc2S(=O)(=O)c2cc(C(=O)N3CCN(c4c(Cl)cncc4Cl)CC3)ccc21	-0.6%	-1%	x	x
O=C(CCN1C(=O)CSc2ccccc21)Nc1ccc(OC(F)(F)F)cc1	0.0%	-1%	x	x
COc1cccc2cc(C(=O)NCc3ccc(C)cc3)c(=N)oc12	1.1%	0%	-1%	x
COc1ccc(NC(=O)c2ccc3c(c2)C(=O)N(CC2CCCO2)C3=O)c(OC)c1 (centres undefined)	1.7%	-15%	-1%	x
O=S(=O)(CCN1CCN(c2ccccn2)CC1)c1ccc(Cl)cc1Cl	0.4%	0%	1%	-2
CCc1ccc(NC(=O)NC(C)c2ccc3c(c2)OCO3)cc1 (centres undefined)	0.9%	-1%	1%	x
Cc1ccc(C)c(N2CCN(S(=O)(=O)c3c(C(=O)N4CCCCC4)c(C)n(C)c3C)CC2)c1	-0.4%	-8%	4%	x
COc1ccc(OC)c(C2NC(=O)N(C)C(C)=C2C(=O)OCc2ccccc2)c1 (centres undefined)	0.7%	12%	3%	x
O=C(O)c1cc(N/N=C/c2ccc(OCc3ccccc3)cc2)ccc1Cl	-3.0%	29%	-61%	0
CCN1CCCC1CNC(=O)c1cc([N+](=O)[O-])c(N(C)C)cc1OC (centres undefined)	2.7%	1%	1%	x
Cc1ccccc1CN1CCCNC1=O	-1.3%	3%	-4%	-13
CC12CCC(C(=O)NNc3ccccc3)(OC1=O)C2(C)C (centres undefined)	-1.1%	17%	1%	-1
Cc1nc2ccccn2c1-c1ccnc(SCc2ccc(Cl)cc2)n1	-3.5%	-12%	1%	u
COC(=O)c1ccc(NC(=S)NC2c3ccccc3CC2O)cc1 (centres undefined)	-1.0%	-1%	-8%	4
Cc1ccc(NC(=O)CNc2ccc(OC(C)C)cc2)cc1	0.7%	3%	-8%	11
CCN(CC)CCN(Cc1cc2cc3c(cc2[nH]c1=O)OCCO3)C(=S)NCC1CCCO1 (centres undefined)	0.8%	-1%	-5%	1
Cc1cc(NC(=O)CCCN2C(=O)c3cccnc3C2=O)ccc1Br	0.1%	7%	-2%	-8
CCOC(=O)CN(C(=O)COc1ccc2c(C)cc(=O)oc2c1)c1ccc(OCC)cc1	2.9%	0%	0%	5
CCCSC1=C(C#N)C(c2ccccc2C)CC(=O)N1 (centres undefined)	1.1%	12%	-3%	6
OCCC1CN(C2CCSCC2)CCN1C1CCCC1 (centres undefined)	-2.7%	12%	-3%	5
CC(C)c1ccc(NC(=O)COC(=O)CSc2nnc(N)s2)cc1	-1.6%	3%	-7%	-8
COc1cc(C)c(NC(=O)c2cc(C3CC3)nc3c2cnn3C(C)C)cc1OC	u	-1%	x	x
CN(Cc1cccnc1)C(=O)c1ccc2nc(Cc3ccccc3F)oc2c1	-0.7%	5%	-26%	x
COc1cc(OC)nc(Oc2ccccc2C(=O)Oc2ccc(F)cc2Cl)n1	3.4%	31%	4%	-15
COc1ccc(N2C(=O)c3ccccc3NC2c2ccccc2O)cc1 (centres undefined)	-0.8%	-5%	-35%	x
O=[N+]([O-])c1ccc2c(c1)OCCOCCOCCOCCOCCOCCO2	6.8%	-16%	-2%	-1

Remaining list, next part
SMILES	Rango-impB inh	Rango release inh	miR-21 FLuc	GLA inh pH 4.5
O=C(CN1C(=O)C2C3CCC(C3)C2C1=O)Oc1ccc2ccccc2c1 (centres undefined)	0.2%	-9%	-7%	3
Cn1cc(CN2CCN(c3ncccn3)CC2)c(-c2cccc(Cl)c2)n1	3.3%	-8%	-1%	5
Cc1cccc(N2CCN(C(=O)/C=C/c3cccs3)CC2)c1C	-3.9%	10%	-36%	5
CC(C)(C)n1nc2c(c1NC(=O)Cc1cccs1)CSC2	x	x	-18%	0
COc1ccc(OC)c(CCNC(=O)CCCc2nnc3n(C)c(=O)c4sccc4n23)c1	-0.1%	1%	2%&-2%	x
Cc1ccc(S(=O)(=O)CCC(=O)Nc2cccc(C)c2)cc1	u	-28%	-1%	-16
O=S(=O)(c1ccc(F)cc1)N1CC=C(c2ccccc2)CC1	-2.3%	9%	-7%	-6
COc1ccc(NC(=O)CSc2nc(SC)ns2)cc1	-1.0%	-5%	-81%	x
CCC(=O)N1CCN=C1SCc1cccc(C(F)(F)F)c1	0.0%	9%	-5%	x
c1ccc2[nH]c(NN=C3CCCCCC3)nc2c1	-2.0%	-4%	-8%	-2
CCC(C)NC(=O)CSc1nnc(-c2c[nH]c3ccccc23)o1 (centres undefined)	0.5%	-2%	-9%	7
COc1ccc(NC(=O)c2ccccc2C)c(OC)c1	-4.2%	-1%	-18%	-1
CC(C)OC(=O)CSc1ncnc2c1cnn2Cc1ccccc1	-2.4%	-6%	0%	1
COc1cccc(C2CC(=O)Nc3n[nH]c(-c4ccccc4)c32)c1OC (centres undefined)	-1.0%	35%	-6%	-4
Cc1cccc(-c2noc(CCCC(=O)N3CCOCC3)n2)c1	-1.0%	-8%	-17%	-4
COc1ccc(NC(=O)CSCc2ccc(C#N)cc2)c(OC)c1	1.2%	9%	-3%	x

Reformatted field by field: 4 of the compounds above.
SMILES: Clc1nssc1=Nc1ccccc1
  Rango-impB inh = 1.5%
  Rango release inh = 1%
  miR-21 FLuc = -13%
  GLA inh pH 4.5 = 0
SMILES: O=C1c2ccccc2S(=O)(=O)c2cc(C(=O)N3CCN(c4c(Cl)cncc4Cl)CC3)ccc21
  Rango-impB inh = -0.6%
  Rango release inh = -1%
  miR-21 FLuc = x
  GLA inh pH 4.5 = x
SMILES: O=C(CCN1C(=O)CSc2ccccc21)Nc1ccc(OC(F)(F)F)cc1
  Rango-impB inh = 0.0%
  Rango release inh = -1%
  miR-21 FLuc = x
  GLA inh pH 4.5 = x
SMILES: COc1cccc2cc(C(=O)NCc3ccc(C)cc3)c(=N)oc12
  Rango-impB inh = 1.1%
  Rango release inh = 0%
  miR-21 FLuc = -1%
  GLA inh pH 4.5 = x

Additional results.
SMILES	Rango-impB inh	Rango release inh	miR-21 FLuc	GLA inh pH 4.5
CCOC(=O)C(CC(=O)O)NCc1ccco1 (centres undefined)	5.2%	-6%	-3%	-6
Cn1nc(C(=O)NC2CCCCC2)c2c1-c1ccccc1S(=O)(=O)C2	0.5%	-10%	-3%	x
CCCCn1nc(NC(=O)c2cccs2)c2cc3ccccc3nc21	u	u	1%	-5
CCCn1c(=S)[nH]c2cc(C(=O)N3CCCC(C(=O)OCC)C3)ccc2c1=O (centres undefined)	0.7%	1%	9%	0
Cc1cc2c(cc1C)N(C(=O)CSC1=NCCS1)C(C)(C)c1ssc(=S)c1-2	-4.9%	1%	1%	-4
COc1cccc2cc(C(=O)N3C(C)CCCC3C)c(=O)oc12 (centres undefined)	-0.3%	-2%	-3%	-3
Cc1cc(C2=NNC(=Nc3ccccc3)SC2)c(C)n1C	-0.3%	-8%	-15%	9
CC(=O)N(c1ccc(Cl)cc1)c1cn(C(C)=O)c2ccccc12	3.2%	1%	0%	-8
Cn1c(=O)n(C)c2cc(S(=O)(=O)NCCO)ccc21	-3.1%	-19%	-6%	3
Cc1c(C(=O)NNS(=O)(=O)c2ccccc2Cl)sc(=S)n1C	-2.1%	-8%	0%	-5
Cc1cc2c(Nc3ccccc3)ncnc2s1	1.6%	-7%	-28%	0
CCn1ncc(Br)c1C(=O)Nc1ccc(C(C)C)cc1	0.5%	-16%	-36%	x
Cc1ccccc1-n1cnc2c(sc3nc(N4CCOCC4)c4c(c32)CCCC4)c1=O	-1.6%	12%	-10%	-10
CCC1CCCCN1c1nc(-c2ccncc2)nc2ccccc12 (centres undefined)	-0.3%	3%	17%	-3
O=C(O)c1cccc(NC(=S)NC(=O)c2cccc(OCc3ccccc3)c2)c1	-0.3%	9%	-42%	x
COC(=O)c1sc(-c2ccc(Cl)cc2)cc1N	-0.6%	-4%	-66%	-5
COc1ccccc1CNCC(=O)NCc1ccc(C)cc1	0.3%	1%	-5%	2
CC(=O)Nc1ccc(S(=O)(=O)NCC2CCC(C(=O)NCCc3ccccc3)CC2)cc1 (centres undefined)	-2.3%	-8%	-1%&1%	x
O=C(NC1CCN(C(=O)NCc2ccccc2)CC1)c1ccco1	-3.2%	-9%	0%	1
